MT1-MMP promoter – inhibitors of MT1-MMP promoter transcription, cell-based, luciferase reporter, luminescence (AID 618); MT1-MMP promoter luciferase reporter cells, luminescence; calls from a first round at 10 µM; hits with a dose series show EC50 in µM; 87,000 compounds, 0.62% hits;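 active = over half of the reporter light lost at 10 µM or EC50 under 50 µM; inactive = the rest and hits that failed the dose series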;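 note: actives suppress MT1-MMP promoter-driven transcription so potencies describe inhibitors; HT1080 fibrosarcoma cells; overnight exposure; toxic or luciferase-blocking compounds were not removed from the actives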
WNV NS2B-NS3 inh – inhibitors of WNV NS2B-NS3 protease, primary screen, biochemical, fluorogenic substrate; 65,000 compounds, 0.18% hits; fluorogenic substrate Ex360/Em465; stronger effect = lower value; Genome polyprotein (West Nile virus), P06935; z-score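 (tested at a level between 10 and 100 µM)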;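 active = z-score at -3 or under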;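 note: score is relative to mean and spread of the compound wells of a plate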
Target sequence (P06935 1371-1501 limits assumed): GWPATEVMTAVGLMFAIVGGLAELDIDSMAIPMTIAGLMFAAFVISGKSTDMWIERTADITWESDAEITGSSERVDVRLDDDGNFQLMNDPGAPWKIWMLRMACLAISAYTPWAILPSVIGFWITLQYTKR
Target sequence (P06935 1502-1679 limits assumed): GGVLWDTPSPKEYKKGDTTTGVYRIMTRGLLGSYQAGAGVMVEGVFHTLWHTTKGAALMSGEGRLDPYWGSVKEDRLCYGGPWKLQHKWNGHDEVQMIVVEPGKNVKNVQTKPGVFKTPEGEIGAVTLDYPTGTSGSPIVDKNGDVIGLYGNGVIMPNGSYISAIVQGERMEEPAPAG
Hsc70 ATP site – Hsc70 inhibitors, probe displacement, primary screen, biochemical, fluorescence polarization (AID 568); Heat shock cognate 71 kDa protein (Homo sapiens); Hsc70 fluorescence polarization, probe displacement; higher % means a stronger effect; strong numbers were not always called active; one-dose displacement, % at 20 µM; IC50 in µM for titrated hits; 83,000 tested, under 10 active;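 active = displacement above 50% without optical interference and an IC50 on retest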;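 note: ATPase domain with a fluorescein-tagged ATP probe; 0% = vehicle and 100% = excess ADP; read after one hour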
An asterisk follows results filed as active; i = inactive; . = no result given. Not all compounds are listed (hit frequency here may not be typical).

SMILES | MT1-MMP promoter | WNV NS2B-NS3 inh | Hsc70 ATP site
O=C(Cc1ccccc1)N1CCN(C(=O)c2cccs2)CC1 | i | -0.27 | -7.3%
CCC(Sc1ncccc1C(=O)OCCN1CCCC1=O)C(=O)NCc1ccco1 (stereo unspecified) | i | 1.91 | -4.6%
O=C1N(c2ccccc2)C2CS(=O)(=O)CC2N1c1ccc(Cl)c(Cl)c1 (stereo unspecified) | i | 0.7 | -2.8%
CC(C)NS(=O)(=O)c1ccc(OCC(=O)Nc2ccc(F)cc2F)cc1 | i | . | 2.1%
COc1cccc(C(=O)NCCC2=CCCCC2)c1OC | i | -0.57 | 3.6%
CC(=O)C1=C(C)NC(C)=C(C(C)=O)C1c1ccc(-c2ccccc2Cl)o1 | i | 1.13 | -1.3%
CCCn1nnnc1NCc1ccccc1OCc1ccc(F)cc1 | i | 0.82 | 0.8%
O=C(c1ccc(S(=O)(=O)Nc2ccccc2)cc1)N1CCOCC1 | i | -0.52 | 2.5%
Cn1c(COc2ccccc2)nnc1SCCC(=O)Nc1ccccc1 | i | -0.15 | 1.4%
Cc1ccc2nc(SCC(=O)Nc3ccc4c(c3)OCCO4)[nH]c2c1 | i | . | -0.4%
COc1ccccc1CCC(=O)Nc1nc2ccccc2[nH]1 | i | 1.22 | 0.5%
CC(NC(=O)CSc1nc2ccccc2n1CCC#N)c1ccc(F)cc1 (stereo unspecified) | i | . | 2.6%
Cn1c(C(=O)N2CCCCCC2)cc2c(=O)n(C)c3ccccc3c21 | i | 1.07 | 6.7%
Cc1csc(NC(=O)CCc2nc3ccccc3s2)n1 | i | 1.49 | -2.4%
COc1ccc2oc(=N)c(C(=O)Nc3ccccc3)cc2c1 | i | -1.07 | 0.5%
COc1ccc(OC)c(N2C(=O)C(Cl)=C(N3CCCCC3)C2=O)c1 | i | -1.04 | 5.5%
CC1Cc2ccccc2N1C(=O)CSc1nnnn1Cc1ccccc1 (stereo unspecified) | i | 0.45 | -10.3%
CC(=O)c1cccc(NC(=O)NCc2cccnc2)c1 | i | -0.59 | -3.3%
CCCC(=O)NCCc1ccc(F)cc1 | i | . | -1.1%
Cc1ccc(S(=O)(=O)N2CCN(C3CC(=O)N(Cc4ccccc4)C3=O)CC2)cc1C (stereo unspecified) | i | -0.29 | 1.7%
CC(NS(=O)(=O)c1ccc(Br)cc1)C(N)=O (stereo unspecified) | i | 0.63 | -7.7%
COc1cccc2cc(-c3nnc(SCC(=O)Nc4cc(C(F)(F)F)ccc4Cl)n3N)oc12 | i | -0.63 | -2.5%
CCCC1C2C(=O)N(c3ccc(OC)cc3)C(=O)C2ON1c1ccccc1 (stereo unspecified) | i | . | 0.7%
Cc1ccc(NC(=O)Cn2c(=O)n(CCCC(=O)NCc3ccco3)c(=O)c3ccccc32)cc1 | i | -1.45 | -2.5%
O=C(CS(=O)(=O)Cc1ccccc1)Nc1ccccn1 | i | 1.01 | -4.0%

Laid out differently: entries from further up.
Values in the order: MT1-MMP promoter	WNV NS2B-NS3 inh	Hsc70 ATP site
COc1ccc2oc(=N)c(C(=O)Nc3ccccc3)cc2c1
    i	-1.07	0.5%
CC(=O)c1cccc(NC(=O)NCc2cccnc2)c1
    i	-0.59	-3.3%
Cc1ccc(S(=O)(=O)N2CCN(C3CC(=O)N(Cc4ccccc4)C3=O)CC2)cc1C (stereo unspecified)
    i	-0.29	1.7%
CC(NS(=O)(=O)c1ccc(Br)cc1)C(N)=O (stereo unspecified)
    i	0.63	-7.7%
Cc1csc(NC(=O)CCc2nc3ccccc3s2)n1
    i	1.49	-2.4%

(list continues)
SMILES | MT1-MMP promoter | WNV NS2B-NS3 inh | Hsc70 ATP site
CCNc1nc(NC(C)C)nc(Oc2ccc(OCc3ccccc3)nn2)n1 | i | . | 1.1%
Cc1cc(C)c2[nH]c(=O)c(=O)[nH]c2c1 | i | -0.86 | -1.1%
CCCCn1c(CCNC(=O)CCC)nc2ccccc21 | i | 0.77 | 0.4%
Cn1c(SCC(=O)N2CCCC2)nc2ccccc2c1=O | i | 0.2 | -3.6%
Cc1ccc(Cn2ccc(NC(=O)c3cc(CC(C)C)on3)n2)cc1 | i | 0.04 | -4.2%
COc1cc(/C=C/C2=NC(=O)C(C)(C)O2)ccc1O | i | 0.1 | -1.5%
CC(=O)Nc1ccc(S(=O)(=O)N(Cc2ccco2)CC2CCCO2)cc1 (stereo unspecified) | i | -0.33 | -2.0%
CC(=O)Nc1ccc(S(=O)(=O)Nc2nc3c(s2)CCCC3)cc1 | i | 0.57 | 0.2%
Cc1ccccc1OCC(=O)Nn1c(COc2ccccc2)nc2ccccc2c1=O | i | . | 5.3%
CC(C)(C)OC(=O)NCCc1nnc(SCc2ccccc2Cl)o1 | i | 0.63 | 1.1%
CCOC(=O)c1cnc2cc(Cl)c(OC)cc2c1NCC1CCCO1 (stereo unspecified) | i | -0.49 | 2.6%
CCOC(=O)NC1(NC(C)C)Oc2ccccc2O1 | i | . | -3.3%
COc1ccc(C2=NN(C)C(=NCc3ccccc3)SC2)cc1 | i | . | 3.6%
CC1(C)C=Cc2c(c3ccccc3[nH]c2=O)O1 | i | -0.27 | 2.0%
COc1ccc(CN(CCCN2CCOCC2)S(=O)(=O)N(C)C)cc1OC | i | -0.91 | -0.1%
Cc1[nH]c2ccccc2c1Cc1nnc(SCC(N)=O)o1 | i | -1.35 | 4.3%
Clc1ccc(Cl)c2sc(N3CCOCC3)nc12 | i | -1.45 | 6.0%
O=c1c2c(nc3c(-c4ccccc4)c[nH]n13)CCCC2 | i | -0.7 | -0.9%
COc1ccc(-c2noc(CCCOc3ccccc3)n2)cc1OC | i | 0.58 | 0.9%
CCOC(=O)CSc1ncnc2c1cnn2-c1ccc(C)cc1 | i | 1.09 | 0.9%
COc1ccccc1C(=O)Nc1ccc2c(c1)OCCO2 | i | -0.95 | -5.7%
CCOC(=O)C(C(=O)OCC)C(C#N)c1ccccc1 (stereo unspecified) | i | -0.11 | 3.8%
Cc1oc(-c2ccccc2Cl)nc1CSCC(=O)N1CCCC1 | i | 0.97 | 5.7%
O=C(NC1CCCCCCC1)C1c2ccccc2C(=O)N1Cc1ccco1 (stereo unspecified) | i | . | 0.7%
COc1ccc(CN(C(=O)CSc2nnc(-c3ccc(OC)c(OC)c3)o2)c2ccc(F)cc2)cc1 | i | . | 3.6%

Entries of single compounds, looked up by structure:
`COc1ccc(CN(CCCN2CCOCC2)S(=O)(=O)N(C)C)cc1OC` reads MT1-MMP promoter = i; WNV NS2B-NS3 inh = -0.91; Hsc70 ATP site = -0.1%
`O=c1c2c(nc3c(-c4ccccc4)c[nH]n13)CCCC2` reads MT1-MMP promoter = i; WNV NS2B-NS3 inh = -0.7; Hsc70 ATP site = -0.9%
`CC(=O)Nc1ccc(S(=O)(=O)Nc2nc3c(s2)CCCC3)cc1` reads MT1-MMP promoter = i; WNV NS2B-NS3 inh = 0.57; Hsc70 ATP site = 0.2%

The list goes on.
SMILES | MT1-MMP promoter | WNV NS2B-NS3 inh | Hsc70 ATP site
O=C(Nc1nnc(Cc2ccccc2)s1)c1cccs1 | i | -0.32 | -4.6%
CN1CCc2c(c3ccccc3n2C)C1 | i | . | 3.7%
CCOC(=O)C1=C(C)Nc2ncnn2C1c1cccs1 (stereo unspecified) | i | . | -2.1%
Cc1ccc(-c2cc(C(=O)N3CCN(C(=O)c4ccco4)CC3)no2)cc1 | i | -0.62 | 9.4%
Cc1ccc(C2C3CSCC=C3C(C#N)=C(N)C2(C#N)C#N)cc1 (stereo unspecified) | i | -0.99 | -6.3%
Cc1cc(NC(=O)CCC(=O)N(Cc2cccs2)C(C(=O)NC2CCCC2)c2ccncc2)no1 (stereo unspecified) | i | 0.73 | 0.3%
CCOc1ccc(C2CC(c3cccc(OC)c3OC)n3nnnc3N2)cc1Cl (stereo unspecified) | i | 1.65 | 2.6%
CCn1c(SCC(=O)N2c3ccccc3Sc3ccccc32)nnc1-c1ccco1 | i | -1.23 | -3.2%
Clc1ccc(OCc2nnc(SCCN3CCCCC3)n2Cc2ccco2)cc1 | i | -0.00382 | 4.1%
Cc1nn(Cc2ccc(F)cc2)c(C)c1NC(=O)c1cc(-c2ccco2)on1 | i | 1.27 | -2.4%
CCOc1ccc(OCC)c(NC(=O)c2ccc(CNc3c(N4CCOCC4)c(=O)c3=O)cc2)c1 | i | 0.06 | -1.0%
CC1(C(=O)O)CCC(C(=O)NCCc2ccccc2)C1(C)C (stereo unspecified) | i | -0.72 | 1.3%
CC(=O)Nc1ccc(NC(=O)c2ccccc2C)cc1 | i | . | 5.1%
Cc1nc2c(-c3ccccc3)c(C)nn2c(C)c1CCC(=O)NCc1ccco1 | i | -0.75 | 6.9%
CCOC(=O)c1cc2sccc2n1CC(=O)N1CCCc2ccccc21 | i | 0.67 | -3.9%
CCn1c(CNC(=O)c2ccc(OC)cc2)nnc1SCC(=O)c1ccccc1 | i | 0.43 | -1.8%
CCn1c2ccccc2c2nnc(SCC(=O)NCc3cccs3)nc21 | i | -1.47 | 5.9%
O=C(COC(=O)c1ccccc1NC(=O)c1ccco1)Nc1ncc(Cl)cc1Cl | i | . | 3.7%
CN(c1ccc(C(=O)N2CCOCC2)cc1)S(C)(=O)=O | i | . | -4.8%
C=CCNc1sc(C(=O)C(C)(C)C)c(N)c1C#N | i | 1.26 | -3.5%
COc1ccccc1-c1cn(S(=O)(=O)c2ccc(F)cc2)nc1N | i | 0.63 | -9.1%
O=C(NCCN1CCCC1)C1COc2ccccc2O1 (stereo unspecified) | i | -0.41 | -5.5%
COc1ccc(-n2c(C)cc(C(=O)CSc3nnc(-c4cccs4)o3)c2C)cc1 | i | -0.5 | -2.1%
COc1ccc(N2C(=O)CN=C2Nc2nc(C)cc(C)n2)cc1OC | i | . | 6.5%
O/N=C(\c1ccc(Cl)cc1)c1cc2ccccc2o1 | i | -0.06 | -3.7%
(cont.)
SMILES | MT1-MMP promoter | WNV NS2B-NS3 inh | Hsc70 ATP site
COc1cc(O)c(NC(C)=O)c2nonc12 | i | -0.9 | 1.6%
Cn1nnnc1SCC(=O)N1CCN(C(c2ccccc2)c2ccccc2)CC1 | i | 1.26 | -5.7%
CCCc1nc2ccccc2c(C(=O)OCC(=O)Nc2ccc(S(=O)(=O)N3CCOCC3)cc2)c1CC | i | . | -0.3%
CCSc1nnc(NC(=O)c2csc3c2CCC(C)C3)s1 (stereo unspecified) | i | -0.83 | 2.0%
C[C@]12CC[C@@H]3c4ccc(O)cc4CC[C@H]3[C@@H]1CC[C@@H]2O | i | . | 7.8%
COc1ccc(-c2nn(CCC(=O)O)cc2CCC(=O)O)cc1 | i | 0.15 | 1.7%
CC1(C)CC(CCC(=O)Nc2ccccc2Cl)C(=O)O1 (stereo unspecified) | i | -0.01 | -0.7%
Cc1cccc(-c2cc3nc(C)cc(N4CC(C)CC(C)C4)n3n2)c1 (stereo unspecified) | i | . | 2.3%
O=C(NCCc1ccccc1)C1CC(c2ccccc2O)=NO1 (stereo unspecified) | i | -1.17 | 9.8%
CCOc1ccc2nc(NC(=O)C(NS(=O)(=O)c3cccs3)C(C)C)sc2c1 (stereo unspecified) | i | 1.06 | 1.0%
COc1cccc(-c2nc(OC(C)C)c3ccccc3n2)c1 | i | . | 3.4%
Cc1nc(NC(=O)CCc2ccccc2)ccc1Br | i | . | -5.2%
O=C(Nc1ccc(Cl)cc1C(=O)Nc1ccc(Br)cn1)c1ccco1 | i | 0.03 | -9.1%
Cc1ccccc1NC(=O)C(C#N)Cc1cccnc1 (stereo unspecified) | i | 2.07 | 1.6%
Cc1cc(C)n2cc(CSc3nnc(N)s3)nc2n1 | i | -0.36 | 2.0%
O=C(NCc1ccco1)c1ccc(Br)c(S(=O)(=O)N2CCCCC2)c1 | i | -0.69 | -6.2%
CC(=O)CCc1c(C)c2cccc(C)c2[nH]c1=O | i | -0.29 | -2.7%
Cn1c(=O)c2c(SCc3cccnc3)nc(CC(C)(C)C)nc2n(C)c1=O | i | -0.53 | 3.5%
C=C(C)c1cccc(C(C)(C)NC(=O)N2CCN(C)CC2)c1 | i | -0.12 | -1.0%
O=S(=O)(NCCOCCNS(=O)(=O)c1ccccc1)c1ccccc1 | i | 0.05 | 7.7%
Cc1cc(C)cc(NC(=O)CN(C)S(=O)(=O)c2cnc[nH]2)c1 | i | 1.05 | -10.2%
COn1c(C)c(C(C)=O)c2c3nonc3ccc21 | i | 0.5 | -1.9%
CCOC(=O)C1CCN(C(=O)C2CCN(S(=O)(=O)N3CCCC3)CC2)CC1 | i | 1.49 | 5.6%
CCN(CC)c1nc2nonc2nc1N(CC)CC | i | -1.01 | 2.6%
O=S(=O)(c1cccs1)N1CN(Cc2cccs2)c2nc3ccccc3nc21 | i | 0.09 | -1.0%
CC(=O)CSc1ncnc2c1oc1ccccc12 | i | 0.51 | -3.8%
COc1ccc(OC)c(NC(=O)c2cc3n(n2)C(C(F)(F)F)CC(c2ccc4c(c2)OCO4)N3)c1 (stereo unspecified) | i | 0.85 | -8.2%
O=C(O)c1ccc(CS(=O)(=O)Cc2ccccc2F)o1 | i | . | 1.5%
CN(Cc1ccccc1)Cc1nc2c(c(=O)n(C)c(=O)n2C)n1Cc1ccc(Cl)cc1 | i | 0.44 | 1.2%
CSCCC(NC(=O)c1cc(C(C)(C)C)oc1C)C(=O)O (stereo unspecified) | i | -0.97 | 3.4%

From PubChem BioAssay
